# ClpP mod – qHTS Assay for Activators of ClpP; ATP-dependent Clp protease proteolytic subunit (Bacillus subtilis (strain 168)), P80244; purified B. subtilis ClpP, FRET peptide cleavage, 20 min; Potency, µM (titrated, usually from 57.5 µM), for the others: at the top dose activity change, negative = active; 340,000 compounds, 1.9% hits; AID 651965, 2013; active = well fitted falling curve with a large enough effect; inconclusive = small, poorly fitted or top-dose-only effect; inactive = no such curve, though single readings can be large or run the other way; further: potency means the concentration at half of the fitted maximal effect; the source files actives as falling curves though it sought activators and does not explain the sign; nearly all actives have a fitted effect of over 65% in size; many hits overshoot -100%
# Target sequence (P80244 whole entry, looked up): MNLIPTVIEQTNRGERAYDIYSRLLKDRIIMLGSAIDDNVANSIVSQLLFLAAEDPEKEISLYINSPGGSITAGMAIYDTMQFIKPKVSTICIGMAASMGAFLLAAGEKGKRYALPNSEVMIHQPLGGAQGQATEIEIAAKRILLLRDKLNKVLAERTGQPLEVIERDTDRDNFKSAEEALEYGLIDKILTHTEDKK
#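 FRET quenching reversal measured ClpP activation: 10 microg/mL B. subtilis ClpP at pH 8 with the FRET-FV decapeptide, read at 430 nm after 320 nm excitation. The 20-min minus 0-min signal was scaled between DMSO/no-enzyme wells and ADEP (5.8 microM final).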
# gsp antagonist – gsp mutant antagonism. Potency, µM (top dose mostly 76.9 µM), inactives show at the top dose activity change, negative = inhibition, actives largely listed as inhibitors. gsp-mutant cells, cAMP HTRF, 30 min; control for the full effect not named in the record. 340,000 compounds, 0.4% hits; active = falling curve of any shape with a large fitted effect; inconclusive = falling curve, mostly with a smaller effect; inactive = flat or rising curve; cell line not stated here;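 further: intracellular cAMP measured with PDE inhibitor Ro 20-1724 present during compound exposure; potency means the concentration at half of the fitted maximal effect; on the % scale 0 is the no-effect control and ±100 the full control effect; nearly all actives have a fitted effect of over 65% in size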
#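 Cells, 2000/well, grown 16–24 h in DMEM 10% FBS with 0.5 mg/ml G418, then compounds plus […] (300 uM addition stock), 30 min at 37C. cAMP read by HTRF (cAMP-d2 and anti-cAMP antibody-K in lysis buffer) after 30 min RT.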
# gsp agonist – gsp mutant agonism; gsp mutant cells, cAMP HTRF, 30 min; control for the full effect not named in the record; Potency, µM (highest dose often 76.9 µM), for inactives: at the top dose activation (cAMP increase), most hits filed as activators; 340,000 compounds, 0.13% hits; AID 624287; active = well fitted activation curve with a large enough effect; inconclusive = small, poorly fitted or top-dose-only effect, or another doubt; inactive = no such curve, though single readings can be large or run the other way; cell line not stated here;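 further: phosphodiesterase inhibitor Ro 20-1724 added with compounds to block cAMP breakdown; potency means the concentration at half of the fitted maximal effect; nearly all actives have a fitted effect of over 60% in size; about a fifth of the inactives were tested at one dose only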
#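 Cells in DMEM/10% FBS with G418 were pretreated with compounds in DMSO plus […] (300 uM stock) for 30 min at 37C. cAMP was measured by HTRF (cAMP-d2 plus anti-cAMP antibody-K) after 30 min at room temperature.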
# TRPV1 potentiator – enhances activation of the human vanilloid receptor TRPV1; Q8NER1; TRPV1-expressing cells, Fluo-8 calcium influx, capsaicin EC20 potentiation; host cell line not named in the record; control for the full effect not named in the record; potentiation, % at 8.33 µM; 320,000 compounds, 0.02% hits; AID 540277; active means potentiation above 80%; inconclusive means 30% to 80%; inactive means below 30%; further: 0% is about no effect
# Target sequence (Q8NER1 whole entry, looked up): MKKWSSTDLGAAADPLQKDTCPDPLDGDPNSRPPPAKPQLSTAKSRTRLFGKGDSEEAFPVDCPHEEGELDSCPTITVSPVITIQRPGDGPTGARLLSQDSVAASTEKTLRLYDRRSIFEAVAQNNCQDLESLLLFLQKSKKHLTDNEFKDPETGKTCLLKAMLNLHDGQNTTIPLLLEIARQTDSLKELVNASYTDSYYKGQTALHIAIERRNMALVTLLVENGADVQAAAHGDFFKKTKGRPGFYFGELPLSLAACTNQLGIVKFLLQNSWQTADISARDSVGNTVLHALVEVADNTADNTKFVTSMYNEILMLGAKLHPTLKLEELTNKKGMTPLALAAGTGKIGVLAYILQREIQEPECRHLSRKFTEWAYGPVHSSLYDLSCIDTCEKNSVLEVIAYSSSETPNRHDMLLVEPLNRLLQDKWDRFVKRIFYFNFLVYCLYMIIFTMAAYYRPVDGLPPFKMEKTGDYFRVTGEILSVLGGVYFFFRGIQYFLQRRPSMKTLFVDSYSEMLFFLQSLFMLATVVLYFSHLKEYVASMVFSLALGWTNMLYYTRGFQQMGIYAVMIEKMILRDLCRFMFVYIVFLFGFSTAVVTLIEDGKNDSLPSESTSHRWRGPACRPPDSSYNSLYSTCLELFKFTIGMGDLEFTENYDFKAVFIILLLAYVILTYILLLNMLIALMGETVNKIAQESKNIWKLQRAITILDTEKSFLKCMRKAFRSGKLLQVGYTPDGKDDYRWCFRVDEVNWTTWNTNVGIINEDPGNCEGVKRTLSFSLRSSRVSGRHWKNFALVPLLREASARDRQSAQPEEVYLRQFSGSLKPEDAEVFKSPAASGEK
#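 Cells expressing TRPV1 were dye-loaded with Fluo-8 and read kinetically: 10 s baseline, 3 min after compound (agonist portion), then 2 min after EC20 capsaicin (allosteric enhancer portion). Calcium-bound dye fluorescence at 480/520 nm.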
# Sfp inh – blocks B. subtilis Sfp PPTase activity. Q9F4F7. Biochemical Sfp PPTase activity, qHTS. Potency, µM, for inactives: max response, negative = inhibition, most hits filed as inhibitors. 310,000 compounds, 3.5% hits. AID 1490; active means well fitted inhibition curve with a large enough effect; inconclusive means small, poorly fitted or top-dose-only effect, or another doubt; inactive means no such curve, though single readings can be large or run the other way;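 further: the enzyme is Sfp with the accession as filed and its product quenches rhodamine fluorescence; potency means the concentration at half of the fitted maximal effect; 0% = enzyme reaction without inhibitor and -100% = no enzyme wells; top concentration of the series not given in the record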
#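 Reaction rates are the 30-min fluorescence difference (ex 525, em 598 nm) in wells containing 15 nM Sfp, 5 uM rhodamine-CoA and 12.5 uM BHQ-2-YbbR at pH 7.6 with 10 mM MgCl2.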
# Menin-MLL FL inh – displaces fluorescein MLL peptide from human menin; Fluorescence polarization, fluorescein-MLL peptide displacement from menin; FP activity change, % at 61.4 µM; 290,000 tested, under 10 active; inconclusive = falling polarisation curve, or a change in total fluorescence; inactive = total fluorescence flat and polarisation flat or rising; no compound was filed as active; the % refers to the polarisation; negative = inhibition;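 further: % of control where 0% means no effect; inhibitors lower the polarisation; unlabelled MLL peptide was the positive control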
# TRPML1 inh – inhibitors of human TRPML1 channel; AID 624415; TRPML1-inducible cells, Ca2+ dye fluorescence, FDSS; active compounds read low; inhibition of EC80 agonist-evoked calcium signal; Q9GZU1; 390,000 compounds, 0.02% hits; activity change, negative = inhibition, % (concentration not given with the values); in the data active means activity change below about -50%; inconclusive means about -30% to -50%; inactive means above about -30%;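 further: stimulus is agonist 54-4 at its EC80 concentration; on the % scale 0 is the no-effect control and ±100 the full control effect; the text of the record puts the active cut at -80%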
#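 TRPML1-DL cells, Tet-induced overnight (~16 h, 37 °C) at 1,500 cells/well, were loaded with Ca8 no-wash dye plus quencher for 45-90 min at room temperature. Compounds were pinned during FDSS kinetic reading; agonist 54-4 at EC80 (4 uM final) then added.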
# Active calls of the source: *; ? = inconclusive; / = no result given; & = joins results of further samples; [ ] = dose if it differs, or a comment.
# Results follow in this order: ClpP mod	gsp antagonist	gsp agonist	TRPV1 potentiator	Sfp inh	Menin-MLL FL inh	TRPML1 inh
1: COc1ccc(-c2n[nH]c(C)c2-c2cc(OC)ccc2O)cc1
  0.2%	0%	4%	5	40µM*	2.0	22
2: Cc1c(CN(C)Cc2cn(C)nc2-c2ccccc2F)[nH]c2ccccc12
  /	11%	3%[15.4 µM]	2	16%	-0.1	4
3: O=C(NC1(C(F)(F)F)NC(=O)N(c2ccccc2F)C1=O)c1ccncc1 (configuration not stated)
  -1.9%	8%	2%	0	-9%	9.8	-13
4: Cc1noc(C)c1S(=O)(=O)Nc1c(C)n(C)n(-c2ccccc2)c1=O
  -2.9%	5%	7%	-8	2%	-0.2	-8
5: CN1C(C(=O)NCc2ccco2)=CC(c2ccc(F)cc2)=NS1(=O)=O
  -3.0%	-2%	8%	-19	-3%	2.4	-7
6: O=C(N/N=C1/CCS(=O)(=O)c2ccc(F)cc21)c1ccccn1
  1.0%	-3%	25%	-9	-92%	-2.5	17
7: CCNC(=O)COC(=O)c1ccc(NS(=O)(=O)c2ccc3c(c2)OCCO3)cc1
  /	1%	-2%[15.4 µM]	3	15%	3.5	27
8: COc1ccc(NC(=O)COC(=O)CNC(=O)c2cccs2)cc1Cl
  0.8%	-3%	-12%	-18	/	/	25
9: COc1ccc(C(=O)N(CN2CCCC2=O)c2nccs2)cc1OC
  -10%	6%	-6%	-4	24%	1.3	0
10: OC(COc1cccc2ccccc12)CN1CCN(c2ccccn2)CC1 (configuration not stated)
  -0.5%	1%	?	9	1%	12	-4
11: COc1ccc(Cl)cc1NC(=O)NC(C)C
  0.5%	-22%	-10%	3	2%	0.7	11
12: CN1C(=O)c2ccc(NC(=O)C3CC3)cc2C1=O
  3.6%	2%	8%	10	11%	/	-3
13: COc1ccc(-c2noc(-c3ccc(Br)o3)n2)cc1OC
  -13%	-10%	-17%	3	12%	2.9	0
14: C=CCn1c(=O)c2ccccc2n2c(SCc3cc(=O)n4ccsc4n3)nnc12
  -10%	-6%	-33%	-12	3%	2.0	-8
15: CC(c1ccccc1)N1CNc2c(c(=O)n(C)c(=O)n2C)C1 (configuration not stated)
  -1.2%	1%	-4%	16	14%	-5.3	8
16: O=C(c1cc(-c2cccc(O)c2)on1)N1CCOCC1
  1.3%	2%	-122%[inhibitor]	-1	3%	1.5	1
17: O=C(COc1ccccc1-c1ccccc1)NN=C1CCCC1
  1.0%	10%	-25%	9	-8%	7.4	-7
18: CCSc1ncc(Cl)c(C(=O)N(Cc2ccc(N(C)C)cc2)C2CCS(=O)(=O)C2)n1 (configuration not stated)
  -0.9%	-5%	-19%	?	2%	1.8	-8
19: O=C1C(Cl)=C(Oc2ccccc2)C(=O)c2ccccc21
  /	40µM*	26%	/	/	/	-14
20: Cc1ccc(-n2cnc(N)c2C(=O)c2cccc([N+](=O)[O-])c2)cc1
  /	0%	-7%[15.4 µM]	-12	6%	-5.7	44

# Just gsp agonist and Sfp inh, for 2 of the compounds above:
entry	compound	gsp agonist	Sfp inh
4	Cc1noc(C)c1S(=O)(=O)Nc1c(C)n(C)n(-c2ccccc2)c1=O	7%	2%
5	CN1C(C(=O)NCc2ccco2)=CC(c2ccc(F)cc2)=NS1(=O)=O	8%	-3%

# Later entries.
# Results follow in this order: ClpP mod	gsp antagonist	gsp agonist	TRPV1 potentiator	Sfp inh	Menin-MLL FL inh	TRPML1 inh
21: CC1CN(C(=O)c2ccc(CNS(=O)(=O)c3cccc(Cl)c3)cc2)CC(C)O1 (configuration not stated)
  2.2%	0%	5%	7	15%	1.3	-4
22: O=C(CCc1ccccc1)NC(=S)Nc1cccc(C(=O)O)c1
  1.3%	?	3%	12	14%	-1.5	26
23: CC1Oc2ccccc2C=C1/C=N/Nc1ccc(C(=O)O)cc1 (configuration not stated)
  -5.1%	-16%	?	-1	3%	0.4	/
24: COc1ccc(C(=O)OCC(=O)NCC2CCCO2)c(F)c1 (configuration not stated)
  0.9%	-2%	24%	-13	/	/	10
25: COc1cc(C)c(NC(=S)NCCCN2CCOCC2)cc1OC
  /	/	-5%[15.4 µM]	3	-25%	2.5	3
26: Cc1c(S(=O)(=O)N2CCCCC2)c(=O)n(C)c(=O)n1C
  /	4%	5%[15.4 µM]	11	/	/	-12
27: Cc1cc(-c2nn3c(C)nnc3s2)ccc1NC(=O)C(C)(C)C
  1.7%	5%	25%	/	/	/	19
28: O=S(=O)(Nc1cccc(F)c1)c1ccc(S(=O)(=O)N2CCOCC2)cc1
  -3.2%	/	28%	/	/	/	-9
29: CCC(C)NC(=O)COC(=O)c1ccccc1OCC(=O)Nc1ccc(Br)cc1 (configuration not stated)
  0.6%&1.8%	13%	-29%	-28	-9%	3.3	0
30: COc1cc(/C=C(/C#N)C(=O)NC(C)c2ccccc2)cc(OC)c1O (configuration not stated)
  /	-14%	?	-6	-9%	/	13
31: COCOCCn1cc(CN2CCS(=O)(=O)N(Cc3ccc(-c4cccc(CO)c4)cc3)C(CC(C)C)C2=O)nn1 (configuration not stated)
  1.9%	/	1%	/	/	/	23
32: Cc1ccc(NS(=O)(=O)c2cc(C(=O)NCCCN(C)C)ccc2Cl)cc1Cl
  1.1%	10%	5%	13	/	/	-10
33: CCN(CC)C(=S)SC1CCCCN(C(=O)c2ccccc2)C1=O (configuration not stated)
  -0.7%	?	?	/	-16%	2.6	1
34: CNC(=S)N1N=C(c2ccc(Br)cc2)CC1c1ccc(Br)cc1 (configuration not stated)
  7.7%	-4%	1%	-13	0%	-1.6	44
35: Cc1nc(C(F)(F)F)ccc1C(=O)NN1CCOCC1
  0.3%	2%	-5%[15.4 µM]	0	7%	0.0	3
36: CCCn1c(N)c(N2CCCCC2)c(=O)n(CC(=O)Nc2ccccc2C(F)(F)F)c1=O
  0.4%	-1%	-8%[15.4 µM]	/	/	/	7
37: COc1ccc(NCC(=O)n2c(C)c(C)c3ccccc32)cc1
  -1.1%	-2%	-1%[15.4 µM]	6	8%	-0.2	4
38: CCN(CC)S(=O)(=O)c1ccc(-c2nnc(SCC(C)=O)o2)cc1
  -4.8%	-11%	1%	-1	6%	-1.8	-17
39: Cc1ccc(C(CC(=O)O)Nc2nc(N3CCCCC3)nc(N3CCCCC3)n2)cc1 (configuration not stated)
  -0.7%	10%	34%	13	?	-0.2	12
40: CCOc1ccc(C(=O)CSc2nnc3ccccn23)cc1
  1.0%	-2%	5%	3	17%	1.1	2
41: O=[N+]([O-])c1ccccc1CN1CCN(S(=O)(=O)c2ccccc2)CC1
  -15%	6%	5%[15.4 µM]	/	/	/	6
42: Cc1c(CCC(=O)N2CCC[C@H]2C(=O)O)c(=O)oc2c(C)c3oc4c(c3cc12)CCCC4
  3.8%	-20%	-1%	-8	-10%	-7.2	10
43: O=C1/C(=C\c2ccncc2)SC(=S)N1C1CCCCC1
  -5.5%	6%	-32%[inhibitor]	-14	-19%	1.5	39
44: CCC(=O)Nc1cccc(Oc2nc(C)cc(C)c2C#N)c1
  1.2%	-3%	-12%	-8	-2%	1.0	6
45: CCOc1ccc(-n2c(SCC(=O)Nc3cc(C)on3)nc3c([nH]c4ccccc43)c2=O)cc1
  ?	6%	-4%	-6	-2%	2.6	7&-16
46: CC(C)c1ccc(CNc2cc(N3CCCC3)ccc2[N+](=O)[O-])cc1
  -0.8%	1%	-67%[inhibitor]	-3	-11%	-0.2	70
47: COc1ccc([N+](=O)[O-])cc1NC(=O)C(C)N1CCN(C(=O)c2ccco2)CC1 (configuration not stated)
  /	-1%	2%[15.4 µM]	-13	2%	0.1	6
48: CC(C)C1Cc2c(sc3c2c(=O)n(Cc2ccccc2)c2nncn32)CO1 (configuration not stated)
  -1.4%	-13%	-1%	-13	-1%	1.1	8
49: Cn1c(Cn2c(=O)sc3ccccc32)nnc1SCC(=O)Nc1ccccc1
  -1.4%	-9%	-72%[inhibitor]	-3	8%	3.3	-11
50: CCCn1c(N)c(C(=S)NC(=O)C2CC2)c(=O)n(C)c1=O
  -4.0%	-7%	1%	16	50µM*	-1.2	28
51: COc1ccc(N2CC(C)Cn3c2nc2c3c(=O)[nH]c(=O)n2C)cc1 (configuration not stated)
  -3.7%	-15%	-3%	-3	5%	-0.3	3
52: O=C(COc1ccc(C(=S)N2CCOCC2)cc1)N1CCCC1
  0.8%	6%	13%	-1	-7%	0.4	26
53: C=COCCNC(=O)C(=O)NC(C)C
  ?	3%	13%[15.4 µM]	?	6%	0.8	-5
54: O=C(NC1CCc2ccccc21)c1cc(COc2ccc(F)cc2F)on1 (configuration not stated)
  /	-17%	-13%[15.4 µM]	-6	9%	-2.2	1
55: O=C(Cc1cccc(F)c1)N1CCOCC1
  /	-4%	-16%	/	/	/	29
56: O=C1C(c2ccccc2)=[N+]([O-])c2ccccc21
  -1.0%	3%	?	?	/	/	-10
57: O=C(O)c1cccnc1SC1CC(=O)N(c2cccc(C(F)(F)F)c2)C1=O (configuration not stated)
  0.9%	-8%	-26%	0	1%	-2.3	-14
58: CN(Cc1ccc(C(C)(C)C)cc1)C(=O)c1ccc2c(c1)OCO2
  /	-1%	-7%[15.4 µM]	-12	/	/	28
59: CN(C)c1ccnc2sc3c(NCC(O)CO)ncnc3c12 (configuration not stated)
  3.7%	4%	26%	-2	4%	4.2	-10
60: NS(=O)(=O)c1ccc(Sc2ccc3c(c2)CCC3)nc1
  /	-5%	-6%[15.4 µM]	12	3%	0.8	8
61: O=C(NN1C(=O)/C(=C/c2cccs2)SC1=S)c1ccncc1
  4.9%	-17%	-1%[15.4 µM]	0	79µM*	2.5	-16
62: Cc1ccc(CN2CCSCC2)c(C)c1
  1.8%	-2%	-55%[inhibitor]	5	?	-1.1	15
63: CC(=O)N1CCc2c(sc(NC(=O)C3CCCN3S(=O)(=O)c3cccs3)c2C#N)C1 (configuration not stated)
  -9.4%	13%	-47%[inhibitor]	-3	/	/	11
64: CC(C)C[C@H](NC(=O)NC1CCCc2ccccc21)C(=O)O (some centres not stated)
  /	8%	19%[15.4 µM]	5	6%	1.7	16

# From PubChem
